D2 potentiator – potentiates the human D2 dopamine receptor allosterically | P14416 | DiscoveRx D2 beta-arrestin cells, luminescence, 90 min; 100% = 57 uM dopamine signal | potentiation, % (no concentration beside the values) | 0.23% of 360,000 active; active = potentiation of 50% or more; inconclusive = 30% to 50%; inactive = 30% or less;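 also: compound concentration not given in the record; tested on top of an EC20 dose of dopamine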
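PathHunter beta-arrestin assay in DiscoveRx D2 cells. Compounds were added with an EC20 of dopamine (50 nM final) for 90 min at 37 deg C. Luminescence was read 1 h after detection reagent, with 57 uM dopamine as the EC100 control.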
Six1-Eya2 blk – blocks human Six1 binding to Eya2; AlphaScreen GST-Six1/His-Eya2 binding, biochemical; stronger effect = lower value; control for the full effect not named in the record; 0.56% of 360,000 active; activity change, % (concentration not given with the values); Q15475+O00167; in the data active = activity change below about -65%; inconclusive = about -30% to -65%; inactive = above about -30%; also: % is scaled to controls: 0 for no effect and ±100 for the full control effect
Target sequence (O00167 whole entry, looked up): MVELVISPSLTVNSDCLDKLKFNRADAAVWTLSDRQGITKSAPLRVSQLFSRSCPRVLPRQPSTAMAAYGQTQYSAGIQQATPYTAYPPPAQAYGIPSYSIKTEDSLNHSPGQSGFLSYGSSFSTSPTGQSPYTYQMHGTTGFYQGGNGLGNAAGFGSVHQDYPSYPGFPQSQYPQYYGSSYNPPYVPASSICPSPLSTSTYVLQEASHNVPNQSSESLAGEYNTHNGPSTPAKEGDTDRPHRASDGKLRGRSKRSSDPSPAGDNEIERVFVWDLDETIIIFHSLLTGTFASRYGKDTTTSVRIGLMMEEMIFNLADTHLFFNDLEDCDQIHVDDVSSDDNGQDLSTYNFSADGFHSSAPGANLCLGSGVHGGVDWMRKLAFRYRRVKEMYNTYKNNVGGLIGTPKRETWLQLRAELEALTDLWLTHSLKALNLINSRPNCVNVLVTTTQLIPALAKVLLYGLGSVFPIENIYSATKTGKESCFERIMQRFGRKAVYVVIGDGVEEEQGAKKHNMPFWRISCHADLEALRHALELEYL
Target sequence (Q15475 whole entry, looked up): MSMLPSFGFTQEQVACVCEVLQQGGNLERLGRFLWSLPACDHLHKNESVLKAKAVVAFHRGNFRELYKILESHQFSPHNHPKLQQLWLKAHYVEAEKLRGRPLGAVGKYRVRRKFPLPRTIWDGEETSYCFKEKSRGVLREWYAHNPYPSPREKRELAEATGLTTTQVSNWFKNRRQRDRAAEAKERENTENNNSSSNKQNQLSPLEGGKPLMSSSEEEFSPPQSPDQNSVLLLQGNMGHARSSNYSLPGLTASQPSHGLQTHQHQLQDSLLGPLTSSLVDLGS
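Compounds are tested against tagged Six1 and Eya2 proteins bridged by glutathione donor and nickel acceptor beads; after a one-hour incubation at 37 °C without light, AlphaScreen emission is recorded.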
D2 agonist – agonists of human D2 dopamine receptor (beta-arrestin); P14416; DiscoveRx PathHunter D2 beta-arrestin, luminescence, 90 min; 100% = 57 uM dopamine signal; activation, % (concentration not given with the values); 0.084% of 360,000 active; in the data active = activation above about 40%; inconclusive = about 15% to 40%; inactive = below about 15%; also: compound concentration not given in the record; the text of the record calls up to 30% inactive
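Agonist mode: compounds alone added to overnight-plated D2 PathHunter cells for 90 min at 37 C, with 57 uM final dopamine (EC100) defining full response. Beta-arrestin recruitment detected by chemiluminescent reagent, read after 1 h at ambient temperature.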
CtBP-E1A blk – blocks the CtBP interaction with E1A; AlphaScreen GST-E1A/His-CtBP binding, 1536-well; stronger effect = lower value; control for the full effect not named in the record; activity change, % (no concentration beside the values); 0.49% of 340,000 active; AID 651724; in the data active means activity change below about -65%; inconclusive means about -30% to -65%; inactive means above about -30%; also: % is scaled to controls: 0 for no effect and ±100 for the full control effect; compound concentration not given in the record
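GST-E1A and His-tagged CtBP (125 nM each as 5X stock) were preincubated with pin-transferred compound for 2 h at 37 °C in the dark, then glutathione donor and nickel acceptor beads were added for 1 h before AlphaScreen reading.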
gsp ag – gsp mutant agonism | gsp mutant cells, cAMP HTRF, 30 min; control for the full effect not named in the record | Potency, µM (doses to about 76.9 µM), for inactives: top-dose activation (cAMP increase), usual class: activators | 0.13% of 340,000 active; active = well fitted activation curve with a large enough effect; inconclusive = small, poorly fitted or top-dose-only effect, or another doubt; inactive = no such curve, though single readings can be large or run the other way; cell line not stated here;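 also: phosphodiesterase inhibitor Ro 20-1724 added with compounds to block cAMP breakdown; potency is read from the fitted curve at half-maximal effect; nearly all actives have a fitted effect of over 60% in size; about a fifth of the inactives were tested at one dose only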
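Cells in DMEM/10% FBS with G418 were pretreated with compounds in DMSO plus […] (300 uM stock) for 30 min at 37C. cAMP was measured by HTRF (cAMP-d2 plus anti-cAMP antibody-K) after 30 min at room temperature.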
gsp antag – antagonists of gsp mutant (McCune-Albright syndrome); gsp-mutant cells, cAMP HTRF, 30 min; control for the full effect not named in the record; Potency, µM (top dose mostly 76.9 µM), without a hit: at the highest dose activity change, negative = inhibition, usual class: inhibitors; 0.4% of 340,000 active; active = falling curve of any shape with a large fitted effect; inconclusive = falling curve, mostly with a smaller effect; inactive = flat or rising curve; cell line not stated here;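 also: intracellular cAMP measured with PDE inhibitor Ro 20-1724 present during compound exposure; potency is read from the fitted curve at half-maximal effect; % is scaled to controls: 0 for no effect and ±100 for the full control effect; nearly all actives have a fitted effect of over 65% in size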
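Cells in G418 medium, seeded 16-24 h, 37C; buffer exchange to DPBS + 1 mM CaCl2, 0.5 mM MgCl2, 0.05% BSA; cpds in DMSO + […] (300 uM stock), 30 min 37C; HTRF cAMP detection.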
The depositor's hits bear a star; u = inconclusive; x = no result given; [ ] = dose if it differs, or a comment.

SMILES | D2 potentiator | Six1-Eya2 blk | D2 agonist | CtBP-E1A blk | gsp ag | gsp antag
Cc1cnc(C(=O)OCC(=O)Nc2cc(Cl)ccc2C#N)cn1 | -3.0 | -12.9 | -2.1 | -1.7 | 9.8%[15.4 µM] | -3.4%
Cc1cccc(C)c1NC(=S)N(CCCN1CCCCC1)Cc1ccco1 | -9.4 | 6.7 | -2.3 | 5.0 | 2.4%[15.4 µM] | -5.7%
O=C(O)c1ccc(N=Nc2c(-c3ccccc3)[nH]oc2=O)cc1 | -9.8 | -7.1 | -3.8 | -4.2 | 23.1%[15.4 µM] | -18.5%
CC(CN1CCOCC1)OC(=O)c1ccccc1 (centres undefined) | -3.7 | 5.5 | -4.6 | 0.6 | -2.0%[15.4 µM] | 8.2%
Nc1nc2c(ncn2[C@@H]2O[C@H](CNCc3cnc(N4CCOCC4)s3)[C@@H](O)[C@H]2O)c(=O)[nH]1 | -7.4 | 5.4 | -2.4 | 0.0 | x | x
COc1ccc(C(CNC(=O)c2cccc(Br)c2)N2CCCC2)cc1 (centres undefined) | -14.5 | -1.6 | 0.0 | -7.9 | 1.4% | 13.5%
COC(=O)c1ccc(-c2noc(CN3CCCC(CNC(C)=O)C3)n2)cc1 (centres undefined) | -1.5 | 3.4 | 0.6 | -4.1 | 1.3%[15.4 µM] | 29.9%
Cc1cccc(OCc2nnc(SCC(=O)NCc3ccc4c(c3)OCO4)o2)c1 | -8.4 | -9.4 | -0.6 | -5.4 | -60.1%[inhibitor] | x
COC(=O)CNS(=O)(=O)c1ccc(C)cc1 | 3.8 | -2.5 | -3.3 | 3.6 | -13.3% | -10.2%
COc1ccc(OC)c(NC(=O)CCCNC(=O)c2ccc(Cl)cc2)c1 | -19.5 | -0.7 | -1.5 | 6.7 | -22.3% | 12.0%
COc1ccc(CNC(=O)CN(c2ccc(C)cc2)S(=O)(=O)c2c(C)nn(C)c2C)cc1 | 1.7 | 2.6 | -2.2 | 0.1 | u | 2.1%
CCN(CC(=O)N1CCCCCC1)S(=O)(=O)c1ccc(C)cc1 | -27.1 | 1.6 | -5.8 | x | 24.2% | -3.3%
O=C(NCC1CCCO1)C(=O)N/N=C/c1cc(Cl)ccc1O (centres undefined) | 4.0 | -80.0* | 1.7 | -94.4* | u | 8.1%
CC(NC(=O)c1cc(-c2ccncc2)nc2ccc(Cl)cc12)C1CCCO1 (centres undefined) | -10.7 | 0.8 | -2.3 | -5.9 | -30.8% | -2.5%
O=C(COc1ccccc1Br)N1CCN(c2ccccc2)CC1 | -16.0 | -3.8 | -1.2 | -10.7 | -6.9% | -4.4%
S=C(N/N=C/c1ccc2c(c1)OCO2)NC1CC2CCC1C2 (centres undefined) | -8.3 | -14.4 | -2.4 | -2.1 | 7.0%[15.4 µM] | 8.3%
CC1CCCN(C2(O)C(=O)Nc3c(C(F)(F)F)cccc32)C1 (centres undefined) | -6.0 | 7.3 | -9.5 | x | u | 6.4%
Nc1nc2ccc([N+](=O)[O-])c(N)c2s1 | -11.3 | u | -5.2 | -71.7* | 5.0% | 10.0%
O=C(CCS(=O)(=O)c1cccc2nsnc12)N1CCN(Cc2ccc3c(c2)OCO3)CC1 | -7.0 | -1.3 | -1.1 | -2.3 | 2.5% | -12.1%
CC(=O)Nc1ccc(SCC(=O)N(C)CC(=O)Nc2ccccc2Cl)cc1 | -19.5 | -13.4 | -4.6 | -0.6 | 2.6%[15.4 µM] | 3.4%
Cc1ccccc1C(=O)N1CCC(C(=O)Nc2ccc(C)c(S(=O)(=O)N3CCCCC3)c2)CC1 | -4.6 | -0.1 | -2.4 | -11.1 | 8.5% | u
O=C(NCC1OCCc2ccccc21)C1COc2ccccc2O1 (centres undefined) | -6.5 | 4.6 | -2.9 | 7.9 | 8.8%[15.4 µM] | 13.8%
COc1ccccc1NC(=O)c1ccc(Cl)c(S(=O)(=O)N2CCOCC2)c1 | 0.4 | -1.3 | -3.8 | -1.0 | -25.7% | 0.5%
Cc1sc2ncnc(N3CCC(C(=O)Nc4cc(C(F)(F)F)ccc4OCC(F)(F)F)CC3)c2c1C | -3.5 | -2.3 | 4.6 | -0.1 | -1.6% | -30.2%
CCC(C(=O)Nc1cc(C)nn1-c1nc(C)cc(C)n1)c1ccccc1 (centres undefined) | -10.2 | -2.2 | -5.4 | -3.5 | u | -11.6%
O=C(CN1C(=O)COc2ccccc21)N1CCc2ccccc21 | 21.9 | 1.7 | -1.6 | 1.8 | -1.6% | 7.1%
Cc1ccc(S(=O)(=O)N2CCN(C(=O)Cc3ccc4c(c3)OCCO4)CC2)cc1C | -0.3 | -22.5 | -0.8 | -10.6 | -8.3%[15.4 µM] | 7.4%
CC(C)CCNC(=O)Cn1cc2c(n1)CCCCC2 | -1.6 | -5.3 | -2.5 | 0.4 | -33.4%[inhibitor] | 5.5%
O=C(Nc1cccnc1)c1cc(-c2ccc(Cl)cc2Cl)on1 | -1.7 | -1.9 | 2.9 | 6.2 | -5.4% | -5.6%
Cn1c(CNc2ccccc2O)nc2ccccc21 | 3.7 | -27.5 | u | -0.1 | 6.0% | -13.9%
COc1cc2c(cc1OC)CN(C(=O)c1cc(Cl)nc(Cl)c1)CC2 | -4.1 | -4.5 | 6.4 | -13.0 | 10.4% | -15.6%
O=C(CCCNC(=O)c1ccc(Cl)cc1)Nc1cccc(F)c1 | -17.0 | 16.6 | -6.9 | 1.8 | 4.1%[15.4 µM] | 0.7%
Cc1ccc(N(C(C)C(=O)O)S(=O)(=O)c2c(C)n[nH]c2C)cc1 (centres undefined) | 7.3 | 13.9 | -0.9 | -4.0 | 15.5% | -0.5%
COc1ccc(C[C@H]2CN3C(=NC[C@H]3C)N2CCNC(=O)c2ccc(C)c(Br)c2)cc1 | -25.2 | -0.1 | -1.1 | -4.5 | x | 2.6%
CN1CCN(/C=N/c2c(C#N)cnn2-c2ccccc2)CC1 | -13.6 | -2.7 | -2.0 | 0.8 | -14.0% | 3.6%
O=C(CSc1nc2ccccc2n1CCc1ccccc1)NC1CC1 | -7.7 | 8.7 | -1.5 | 1.6 | -2.1%[15.4 µM] | 16.3%
CCC(C)c1ccc(NC(=S)N2CCN(c3ccccn3)CC2)cc1 (centres undefined) | 1.9 | -8.6 | 3.3 | -10.5 | 6.9% | u
NS(=O)(=O)c1cccc(NC(=O)COC(=O)CN2C(=O)C3CC=CCC3C2=O)c1 (centres undefined) | 2.0 | -7.8 | -2.3 | 3.4 | 14.2%[15.4 µM] | 12.9%
O=C(CCNC(=O)c1ccccc1Cl)Nc1cccc(S(=O)(=O)N2CCCC2)c1 | 0.8 | 2.3 | 4.7 | 1.5 | -6.0% | -4.5%
Cc1c(C)c2ccc(OCC(=O)N3CC[C@@]4(O)CCCC[C@H]4C3)cc2oc1=O | -0.7 | -8.6 | 5.2 | 1.2 | x | -6.8%
CCCCNC(=O)C1(C)CCC(=O)N1CCOC (centres undefined) | -3.7 | 14.4 | -3.5 | -22.4 | x | x
Cn1ccnc1SCC(=O)c1cccc(Br)c1 | -6.6 | -4.5 | 0.0 | -8.2 | -0.8% | -10.8%
COc1ccc(C)cc1NS(=O)(=O)c1cn(C)nc1C | -2.0 | 5.7 | -7.7 | x | -11.5%[15.4 µM] | 19.2%
COc1ccc(N2CCN(Cc3nc(N)nc(Nc4ccccc4OC)n3)CC2)cc1 | -4.5 | -24.5 | -4.2 | -21.4 | -8.7% | 10.8%
CCCCn1c(=O)[nH]c(=O)c2c1nc(-c1cc(Br)c(OCC)c(OC)c1)n2C | 14.5 | 0.6 | -0.5 | -13.8 | -8.8%[15.4 µM] | 10.4%
COc1ccc2c(CC(=O)NNC(=O)c3ccccc3F)coc2c1 | -5.4 | -13.3 | -2.8 | -10.2 | -19.2% | 2.9%
CCN(CC)/C(=N\S(=O)(=O)c1ccc(F)cc1)c1ccccc1 | -3.7 | 29.7 | -4.3 | -8.5 | 11.5%[15.4 µM] | 4.9%
CC(=O)c1ccc(NC(=S)N(C)C2CCN(C)CC2)cc1 | -11.6 | -5.5 | -3.8 | 4.4 | -0.7% | 7.1%
CCOc1ccccc1NC(=O)CSc1nc(=O)n(Cc2ccccn2)c2c1CCC2 | -19.8 | -1.0 | 0.8 | 2.4 | 8.3% | -22.7%
Cc1cc(C)n2nc(SCC(=O)NC(=O)c3ccccc3)nc2n1 | -0.8 | -1.9 | 4.5 | 2.2 | u | -10.2%
O=C(NCC1CCCO1)C1CCN(C(=O)c2ccc(Cl)cc2)CC1 (centres undefined) | 2.8 | 4.6 | -1.1 | 2.1 | 14.8% | -3.0%
COc1ccc(C=CC(=O)C=CC=Cc2ccccc2)cc1 | -9.4 | 3.2 | -1.2 | 0.0 | -9.1%[15.4 µM] | -11.0%
CC1(C)C(=O)OC(C(=O)c2ccc(Cl)cc2)C(C)(C)C1=O (centres undefined) | -20.8 | 4.4 | 0.7 | -15.1 | -32.8%[inhibitor] | 8.1%
COc1ccc(-n2nc(C(=O)N(C)C)nc2-c2ccccc2)cc1 | 0.3 | 0.0 | 9.0 | 7.7 | -8.7% | -2.2%
COCCCNc1nc(=S)[nH]c2cc(OC)c(OC)cc12 | -4.1 | -90.2* | -4.2 | -95.0* | -0.7% | -4.2%
CCOC(=O)C(Cc1c[nH]c2ccccc12)NC(=O)c1ccco1 (centres undefined) | -11.1 | 19.3 | 0.6 | 0.0 | -0.4% | -17.7%
Nc1cccc(Oc2c(F)c(F)c(Oc3cccc(N)c3)c(F)c2F)c1 | -4.1 | -3.6 | -4.6 | -10.6 | -1.8%[15.4 µM] | -9.4%
CC(=O)Nc1ccc(NC(=O)CN2CCCC(C)C2)c(Cl)c1 (centres undefined) | -13.9 | -0.3 | -4.9 | 1.7 | 27.8% | -10.7%
COc1ccc(-c2cc3ccccc3n2CC(O)CN2CCN(CCO)CC2)cc1 (centres undefined) | -1.8 | -3.8 | 0.0 | -1.2 | 5.5% | 8.4%
COc1ccc(CCNC(=O)Cn2cccc2C(=O)c2ccccc2)cc1OC | -4.1 | 2.6 | 2.1 | 0.0 | -4.9%[15.4 µM] | 5.0%

Complete entries as entered above:
CCOc1ccccc1NC(=O)CSc1nc(=O)n(Cc2ccccn2)c2c1CCC2 is listed with D2 potentiator = -19.8; Six1-Eya2 blk = -1.0; D2 agonist = 0.8; CtBP-E1A blk = 2.4; gsp ag = 8.3%; gsp antag = -22.7%
Cc1cc(C)n2nc(SCC(=O)NC(=O)c3ccccc3)nc2n1 is listed with D2 potentiator = -0.8; Six1-Eya2 blk = -1.9; D2 agonist = 4.5; CtBP-E1A blk = 2.2; gsp ag = u; gsp antag = -10.2%

Structural class: those above containing a CF3 group (2)
SMILES | D2 potentiator | Six1-Eya2 blk | D2 agonist | CtBP-E1A blk | gsp ag | gsp antag
CC1CCCN(C2(O)C(=O)Nc3c(C(F)(F)F)cccc32)C1 (centres undefined) | -6.0 | 7.3 | -9.5 | x | u | 6.4%
Cc1sc2ncnc(N3CCC(C(=O)Nc4cc(C(F)(F)F)ccc4OCC(F)(F)F)CC3)c2c1C | -3.5 | -2.3 | 4.6 | -0.1 | -1.6% | -30.2%

Screening data from PubChem BioAssay.
